HNF4A DNA FP – change in binding of human HNF4 alpha to DNA. P41235. HNF4a-FITC DNA binding, fluorescence polarization, 1 h. activity change, % at 10 µM. actives 0.3% (n = 360,000). AID 1224865; in the data active = activity change above about 30%, passing the limit was not always enough;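 also: controls were the assay level and a saturating level of protein; the project sought stronger binding though the title names inhibitors; some compounds called inactive have numbers as strong as hits; positive values seem to mean higher polarization but the record does not say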
Beta2AR agonist – activates human beta-2 adrenergic receptor causing internalization; P07550; Am2.2-beta2AR cells, FAP receptor internalization, flow cytometry; reference of the scale not given here; response, % (no concentration beside the values); actives 0.43% (n = 340,000);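 active = response above a set limit, near 3 SD of response in nonfluorescent compounds, cut at about 42% in these data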;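 also: stock transfer was 100 nL into about 11 µL; a reference agonist was the positive control; negative values mostly stem from fluorescent compounds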
FGF22 binding – shifts melting point of recombinant human FGF22 | Q9HCT0 | recombinant FGF22 thermal shift, SYPRO orange fluorescence; percent of sucrose octasulfate shift, DMSO zero | calls only at 9.99 µM | actives 1.5% (n = 340,000);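 active = melting point raised past a set limit in the mean and every replicate; three in four hits are not shown here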
Target sequence (Q9HCT0 whole entry, looked up): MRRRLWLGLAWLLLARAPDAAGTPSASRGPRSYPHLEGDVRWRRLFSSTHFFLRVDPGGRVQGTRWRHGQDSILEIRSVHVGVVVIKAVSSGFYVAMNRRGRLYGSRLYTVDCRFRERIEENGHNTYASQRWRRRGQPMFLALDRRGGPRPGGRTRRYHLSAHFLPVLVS
UCH37 inh – blocks the human deubiquitinase UCH37; actives 0.33% (n = 330,000); Q9Y5K5; purified proteasome/UCH37, Ub-AMC cleavage fluorescence; AID 588478; inhibition, % (no concentration beside the values);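 active = mean of two replicates above 20%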;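 also: 0% = compound-free wells with enzyme and 100% = wells lacking proteasome; stock transfer was 100 nL into about 20 µL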
Target sequence (Q9Y5K5 whole entry, looked up): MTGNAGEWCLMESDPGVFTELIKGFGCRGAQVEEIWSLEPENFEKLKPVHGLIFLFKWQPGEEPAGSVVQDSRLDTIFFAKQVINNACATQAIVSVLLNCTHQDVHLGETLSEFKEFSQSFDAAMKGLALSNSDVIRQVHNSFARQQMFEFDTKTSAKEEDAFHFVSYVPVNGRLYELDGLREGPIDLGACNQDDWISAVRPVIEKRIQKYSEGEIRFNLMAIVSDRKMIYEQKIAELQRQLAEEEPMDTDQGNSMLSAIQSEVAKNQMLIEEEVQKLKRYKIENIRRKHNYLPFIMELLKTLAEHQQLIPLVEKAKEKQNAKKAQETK
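Material: Human UCH37 enzyme supplied as purified proteasome complex | Schedule: 30 min compound-proteasome preincubation then 25 min substrate reaction, room temperature | Detection: AMC fluorescence from Ub-AMC cleavage, excitation 355 nm, emission 460 nm | Benchmarks: Wells without proteasome as full block, compound-free enzyme plus substrate as uninhibited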
ALR H2O2 inh – blocks human ALR sulfhydryl oxidase activity; purified ALR, DTT oxidation, H2O2 HRP-luminol luminescence; inhibition, % (no concentration beside the values); actives 3.8% (n = 290,000); P55789; AID 485317;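 active = mean and each replicate at 75% or more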;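 also: stock transfer was 7.5 nL into about 7.5 µL; 0% = neutral wells and 100% = wells with inactivated enzyme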
Target sequence (P55789 whole entry, looked up): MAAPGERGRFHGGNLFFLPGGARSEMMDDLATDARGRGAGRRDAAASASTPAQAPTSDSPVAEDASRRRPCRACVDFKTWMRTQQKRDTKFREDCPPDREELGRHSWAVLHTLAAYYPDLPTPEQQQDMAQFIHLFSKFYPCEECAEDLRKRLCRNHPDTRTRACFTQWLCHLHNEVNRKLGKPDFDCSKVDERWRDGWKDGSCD
Ecoli growth – inhibitors of Escherichia coli growth; OD600, 23 h; hits give low values; OD600 absorbance (concentration not given with the values); actives 0.21% (n = 330,000); AID 1053175;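 active = OD600 absorbance below the run mean of sample wells minus 3.6 SD, in any replicate, cut at about 0.56 in these data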;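 also: stock transfer was 300 nL into about 60 µL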
rRNA inh HTS – selective bacterial rRNA inhibition in E. coli; E. coli WT GFP vs humanized-ribosome RFP mutants, fluorescence, 24 h; hits give low values; DMSO median 0, no signal -100; GFP signal change (wild-type ribosome), % (test concentration not listed); actives 1.6% (n = 350,000);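 active = significant combined selectivity score with lowered wild-type GFP, culture density cut under 30%, mutant RFP and density less affected; inactive = any of these conditions unmet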; also: one replicate is shown; some compounds called inactive have numbers as strong as hits
rRNA inh HTS OD600 – further read-out of rRNA inh HTS, marked with its call; OD600 change, %; measured here: OD600 growth;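 optical density of the mix in the first replicate; 0 = DMSO median and -100 = no signal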
rRNA inh HTS RFP – second read-out of rRNA inh HTS, no call of its own (marks repeat the call); RFP signal change, %; measured here: RFP humanized mutant strains;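 first replicate; 0 = DMSO median and -100 = no signal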
The depositor's hits bear a star; i = inactive; nt = no result given; + = active, no number. These rows are one share of the data; count on the stated rates, not on these rows.

SMILES | HNF4A DNA FP | Beta2AR agonist | FGF22 binding | UCH37 inh | ALR H2O2 inh | Ecoli growth | rRNA inh HTS | rRNA inh HTS OD600 | rRNA inh HTS RFP
Cc1sc(N/N=C/c2cccnc2)nc1-c1ccc(Cl)cc1 | 6.4 | -1 | nt | nt | 0 | nt | nt | nt | nt
O=C(Nc1ccc2oc(-c3cccnc3)nc2c1)c1cc2ccccc2o1 | 2.1 | 34 | nt | -6.7 | 2 | 0.79 | nt | nt | nt
CCOC(=O)C(NCCc1ccccc1)(NC(C)=O)C(F)(F)F (stereo not drawn) | -2.5 | 12 | i | 4.3 | -20 | 0.68 | 4 | -3 | -3.1
CN(C)CC(O)c1ccc(C=Cc2ccc(Cl)cc2)cc1 (stereo not drawn) | 0.3 | 10 | i | -5.8 | nt | 0.63 | -16 | 13 | 6.0
Cc1ccc(-c2csc3nc(CSc4nnc(-c5ccc(Cl)cc5)n4C)[nH]c(=O)c23)cc1 | 7.7 | 1 | nt | 3.1 | nt | 0.72 | nt | nt | nt
COC(CNC(=O)C1CCCN(S(=O)(=O)c2c(C)noc2/C=C/c2cccs2)C1)OC (stereo not drawn) | 1.1 | -7 | + | 10.0 | nt | 0.71 | 13 | 3 | 2.5
CCc1nc(SCC(=O)c2ccccc2)c2ccccc2n1 | -0.1 | 15 | i | 2.3 | 99* | 0.65 | 0 | -10 | 1.7
CC1CN(Cc2nc3c(c(=O)[nH]c(=O)n3C)n2CCN2CCOCC2)CC(C)O1 (stereo not drawn) | 2.8 | 5 | nt | -0.2 | -2 | 0.66 | nt | nt | nt
O=C(OCc1nnn(Cc2ccccc2)c1-c1c(COC(=O)c2ccccc2)nnn1Cc1ccccc1)c1ccccc1 | 0.5 | 4 | nt | 0.4 | -2 | 0.72 | nt | nt | nt
CN(CCC#N)C(=O)COC(=O)/C=C/c1cccs1 | 0.5 | -6 | i | 4.7 | -1 | 0.7 | 17 | 10 | 8.0
CC(CC1CC(C)(C)OC1=O)C(=O)Nc1ccc([N+](=O)[O-])cc1 (stereo not drawn) | 0.0 | 12 | i | 7.4 | -1 | 0.69 | 6 | 6 | -1.0
Cn1c(Cc2cccc3ccccc23)nnc1SCC(=O)N1CCN(c2ccccc2)CC1 | 2.0 | 6 | nt | 3.3 | 54 | 0.7 | -3 | -12 | 2.4
Cc1[nH]c2ccc(Cl)cc2c(=O)c1CN1CCCC1 | -1.9 | 4 | i | 1.4 | -3 | 0.69 | 3 | 5 | 1.3
COc1ccc(C(=O)NC(Cc2ccc(OC(=O)c3ccc(OC)cc3)cc2)C(=O)O)cc1 (stereo not drawn) | -0.9 | 8 | nt | 1.4 | 15 | 0.72 | -25 | -26 | -3.9
COCCNC(=O)c1cn(Cc2c(F)cccc2Cl)nn1 | 0.7 | 6 | nt | 2.0 | -5 | 0.71 | nt | nt | nt
COc1ccc(-c2ccc3[nH]c4c(c3c2)CCN2C(=O)[C@@H]([C@H](C)O)[C@@H](N(C)C(=O)Nc3cc(Cl)cc(Cl)c3)C[C@@H]42)cc1 | -5.5 | nt | i | nt | nt | nt | -12 | -13 | 3.8
Cc1nnc(SCCCn2c(N3CCN(c4ccccc4)CC3)nc3c2c(=O)[nH]c(=O)n3C)s1 | -2.9 | -4 | nt | 1.7 | 51 | 0.68 | nt | nt | nt
Cc1ccc(C(C(=O)NCc2ccccc2)N(C(=O)c2ccccn2)c2ccccc2)o1 (stereo not drawn) | -3.6 | 3 | i | -0.1 | -1 | 0.67 | 2 | 6 | 1.9
Clc1ccc(-c2ccc(SCc3ccccn3)nn2)cc1 | -2.8 | 2 | nt | 2.1 | nt | 0.74 | nt | nt | nt
CCc1ccc(N2CC(C(=O)Nc3nccs3)CC2=O)cc1 (stereo not drawn) | -0.7 | -7 | nt | -0.5 | -4 | 0.68 | nt | nt | nt
O=C(Nc1ccc(Cl)c(S(=O)(=O)Nc2ccccc2Cl)c1)c1cccs1 | 2.1 | 6 | nt | 5.9 | -5 | 0.66 | nt | nt | nt
COc1ccc(Cn2nnnc2CN2CCC(O)(c3ccc(F)cc3)CC2)cc1 | 0.1 | -6 | nt | 3.1 | -28 | 0.63 | -17 | -21 | -1.3
CCCCCCC1NC(C(=O)O)CS1 (stereo not drawn) | -7.3 | 6 | nt | 1.5 | nt | 0.74 | nt | nt | nt
CCOc1ccc(NC(=O)N2CCC(n3c(=O)[nH]c4ccccc43)CC2)cc1 | -1.4 | -14 | i | 6.4 | -5 | 0.72 | -17 | -32 | -2.3
COCCNC(=O)c1cc(C(=O)CC(C)C)c[nH]1 | -5.9 | 8 | i | 0.2 | nt | 0.71 | 18 | 15 | 3.5
O=C(Cc1cccc(C(F)(F)F)c1)Nc1cccc(S(=O)(=O)N2CCCC2)c1 | 2.1 | 6 | i | -2.9 | 2 | 0.69 | 4 | -40 | -2.4
N#Cc1c(N2CCOCC2)nc(N)c2c(N)nc3c(c12)CC(CCl)O3 (stereo not drawn) | 6.0 | 7 | i | -163 | -5 | 0.7 | 6 | -1 | 0.2
CC(C)[C@H](NC(=O)c1c(F)cccc1F)C(=O)OCC(=O)NNC(=O)c1ccccc1 | -8.9 | nt | i | nt | nt | nt | 6 | 10 | -0.6
Cc1cc(Cl)ccc1OCC(=O)N1CCN(c2ncccn2)CC1 | 2.2 | -8 | i | -0.3 | -2 | 0.64 | -27 | -35 | -8.2
C=CCN1C(=O)/C(=C2/Sc3ccc(OC)cc3N2C)SC1=Nc1ccc(OC)cc1 | nt | nt | nt | -53 | -27 | 0.63 | 9 | 12 | 1.7
O=C(c1cc(-c2cccc(O)c2)on1)N1CCOCC1 | 4.5 | -7 | i | 3.1 | -31 | 0.69 | -2 | 5 | 0.3
Cc1ccc(C(=O)Nc2cccc(NC(=O)c3ccc(C)o3)n2)o1 | -2.9 | 5 | i | 3.5 | nt | 0.72 | -9 | -18 | -3.9
O=C1c2cccnc2C(=O)N1Cc1ccc(F)cc1S(=O)(=O)NCc1ccco1 | 2.4 | -2 | i | 1.5 | -11 | 0.71 | 15 | 11 | 2.4
COc1cccc(CN(CC2CCCO2)S(=O)(=O)c2ccc(S(=O)(=O)NCC3CCCO3)cc2)c1OC (stereo not drawn) | -4.3 | 1 | nt | 1.9 | -3 | 0.64 | nt | nt | nt
O=C(Nc1cccc(S(=O)(=O)N2CCCCCC2)c1)C1CCN(C(=O)c2ccc(Cl)cc2)CC1 | 4.3 | 15 | i | 3.5 | 2 | 0.64 | -18 | -42 | 12
O=C(CN(C(=O)CNC(=O)c1ccco1)c1ccc2c(c1)OCCO2)NC1CCCCC1 | -7.7 | -1 | nt | 3.2 | -4 | 0.69 | 15 | 6 | 2.7
O=C(CNC(=O)N1CC(=O)Nc2ccccc21)NCCc1cccc(F)c1 | 3.8 | 4 | i | 1.6 | 6 | 0.6 | 2 | 0 | -3.4
COC(=O)c1[nH]c2c(c1C)C(=O)CC(c1cccs1)C2 (stereo not drawn) | 2.7 | 4 | nt | 1.6 | -21 | 0.71 | nt | nt | nt
O=C(O)c1ccc2c(=O)n3c(nc2c1)/C(=C/c1cccc(Cl)c1Cl)CC3 | -1.5 | 7 | i | -84 | 20 | 0.69 | -1 | -25 | -8.1
Cc1ccc(C(=O)c2c3ccccc3[n+]([O-])n2[C@@H](C)C(N)=O)cc1 | 3.0 | 0 | i | 3.0 | -8 | nt | 6 | 8 | 0.2
COC(=O)CN1C(=O)[C@H]2[C@@H](c3ccc(C)o3)N3C(=O)CN(Cc4ccccn4)C(=O)[C@@]3(C)[C@H]2C1=O | -7.0 | 2 | i | -0.7 | nt | nt | 12 | 7 | 11
CCOc1cc(-c2noc(-c3cccnc3)n2)ccc1OC | -2.0 | -17 | nt | 4.4 | -4 | 0.71 | nt | nt | nt
Cc1cc(NC(=O)COC(=O)CNS(=O)(=O)c2ccc(C)c(C)c2)no1 | -2.5 | -1 | i | -1.4 | 0 | 0.7 | 2 | -9 | 0.4
CCCN(CCC)CCCNC(=O)CS(=O)Cc1nc(-c2ccc(OC)c(OC)c2)oc1C (stereo not drawn) | -1.1 | 10 | nt | 2.3 | 100* | 0.68 | nt | nt | nt
O=C(N/N=C\CCc1ccccc1)c1ccco1 | 1.8 | 0 | nt | nt | 1 | nt | nt | nt | nt
O=C(N/N=C/c1cccc(O)c1)c1cc(-c2ccc3c(c2)OCO3)n[nH]1 | 1.6 | 24 | + | nt | 7 | nt | -28 | -57 | -5.0
c1ccc(N2CCN(C3CC4CCC3C4)CC2)cc1 (stereo not drawn) | 7.6 | -9 | i | 0.6 | 50 | 0.69 | -40 | -52 | -17
COc1ccc(N(C(=O)CNC(=O)c2ccco2)C(C(=O)NCC2CCCO2)c2ccc(OC)c(OC)c2)cc1 (stereo not drawn) | -1.0 | -6 | i | 1.2 | -4 | 0.66 | 4 | 0 | -0.8
Cc1csc(CN(C)C(=O)C2CCC(=O)N(CCCc3ccccc3)C2)n1 (stereo not drawn) | -0.5 | 2 | i | 1.0 | -1 | 0.66 | 0 | 4 | -0.7
O=c1cc(-c2nn[nH]n2)[nH]c(=O)[nH]1 | -0.8 | -2 | i | 2.8 | nt | 0.7 | 2 | 8 | -4.1
Cn1c(N)c(C(=O)COC(=O)C2(c3cccc(F)c3)CCCC2)c(=O)n(C)c1=O | -2.2 | -4 | nt | -0.4 | 3 | 0.64 | nt | nt | nt
Cc1ccc(N(C(C)C(=O)N2CCC(C)CC2)S(C)(=O)=O)cc1C (stereo not drawn) | -2.2 | 0 | i | 1.1 | 3 | 0.69 | 1 | 1 | -3.2
O=S(=O)(NC1CCCc2ccccc21)c1cnc[nH]1 (stereo not drawn) | 3.2 | -5 | nt | 3.2 | -35 | 0.71 | nt | nt | nt
CC(=O)Nc1ccc(NC(=O)CSc2nc(N)c(NC(=O)c3ccco3)c(=O)[nH]2)cc1 | -0.4 | 5 | i | 0.9 | 99* | 0.69 | 14 | 8 | 7.2
COc1ccc(/C=C2/N=C3CCCCCN3C2=O)cc1OC | 10 | -5 | nt | 14 | -19 | 0.68 | nt | nt | nt
CCc1c(C(=O)NC2CCCC2)csc1C | -0.9 | 9 | nt | 3.3 | 44 | 0.66 | nt | nt | nt
O=C(Nc1ccccc1)Nc1ccc(Cl)nc1Cl | -2.1 | -2 | i | 2.7 | 12 | 0.58 | -17 | -31 | -4.0
CC(C)(C)c1ccc(C(=O)Nc2nnc(SCC(=O)NCC3CCCO3)s2)cc1 (stereo not drawn) | 5.1 | 8 | i | 1.8 | 4 | 0.7 | 2 | 10 | -0.1
Cc1ccc(S(=O)(=O)/C=C/c2ccccc2)cc1 | -0.7 | -8 | i | 4.2 | -1 | nt | -5 | -13 | -5.0
CC(Sc1nnnn1-c1ccc(O)cc1)c1nc2ccccc2c(=O)[nH]1 (stereo not drawn) | 0.9 | -7 | i | 1.4 | -4 | 0.64 | -6 | -7 | 0.6

Whole records, quoted from the list.
Entry for `O=c1cc(-c2nn[nH]n2)[nH]c(=O)[nH]1` → HNF4A DNA FP = -0.8; Beta2AR agonist = -2; FGF22 binding = i; UCH37 inh = 2.8; ALR H2O2 inh = nt; Ecoli growth = 0.7; rRNA inh HTS = 2; rRNA inh HTS OD600 = 8; rRNA inh HTS RFP = -4.1
Entry for `Cc1ccc(N(C(C)C(=O)N2CCC(C)CC2)S(C)(=O)=O)cc1C` (stereo not drawn) → HNF4A DNA FP = -2.2; Beta2AR agonist = 0; FGF22 binding = i; UCH37 inh = 1.1; ALR H2O2 inh = 3; Ecoli growth = 0.69; rRNA inh HTS = 1; rRNA inh HTS OD600 = 1; rRNA inh HTS RFP = -3.2

Bioassay records from PubChem.
